MLL AF4-AF9 inh: inhibitors of AF4 peptide binding to AF9, primary screen, biochemical, AlphaScreen, biotin-AF4 peptide, FLAG-AF9, single point; Protein AF-9 (Homo sapiens), P42568; inhibition, % at 10 µM; AID 651704, 2012; hit rate 0.47% among 350,000;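 active = every replicate reaching a set inhibition limit, whatever the replicate mean, cut at about 25% in these data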;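 note: 0% = plate neutral control median and 100% = total signal loss; the record names both 10 and 1 µM as test concentration; the first replicate is given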
Target sequence (P42568 whole entry, looked up): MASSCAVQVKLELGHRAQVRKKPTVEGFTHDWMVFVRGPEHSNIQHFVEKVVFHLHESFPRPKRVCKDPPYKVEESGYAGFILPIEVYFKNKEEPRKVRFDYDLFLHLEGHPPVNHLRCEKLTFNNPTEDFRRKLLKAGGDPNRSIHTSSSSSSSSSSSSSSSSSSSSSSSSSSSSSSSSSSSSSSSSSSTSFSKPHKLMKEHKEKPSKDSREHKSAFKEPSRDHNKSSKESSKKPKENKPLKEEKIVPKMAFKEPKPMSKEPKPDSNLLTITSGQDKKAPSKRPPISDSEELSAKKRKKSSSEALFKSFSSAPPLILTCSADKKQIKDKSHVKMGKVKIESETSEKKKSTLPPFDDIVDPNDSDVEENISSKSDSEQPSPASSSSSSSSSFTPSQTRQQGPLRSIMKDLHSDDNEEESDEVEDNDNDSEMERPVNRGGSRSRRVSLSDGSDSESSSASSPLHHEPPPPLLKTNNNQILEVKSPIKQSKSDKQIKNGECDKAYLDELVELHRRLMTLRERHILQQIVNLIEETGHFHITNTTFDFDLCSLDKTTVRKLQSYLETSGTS
E coli growth: E. coli growth inhibition, primary screen, OD600 | Escherichia coli growth, 23 h; hits give low values | OD600 absorbance (concentration not given with the values) | hit rate 0.21% among 330,000 | AID 1053175, 2014;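 active = OD600 absorbance below the run mean of sample wells minus 3.6 SD, in any replicate, cut at about 0.56 in these data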;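 note: stock transfer was 300 nL into about 60 µL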
Ecoli rRNA inh: reduced GFP signal of wild-type E. coli, primary screen, bacterial rRNA inhibitor project, GFP/RFP fluorescence, OD600, single point. E. coli WT GFP vs humanized-ribosome RFP mutants, 24 h; hits give low values; DMSO median 0, no signal -100. GFP signal change (wild-type ribosome), % (test concentration not listed). hit rate 1.6% among 350,000;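 active = significant combined selectivity score with lowered wild-type GFP, culture density cut under 30%, mutant RFP and density less affected; inactive = any of these conditions unmet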; note: one replicate is shown; some compounds called inactive have numbers as strong as hits
Bfl-1 A1 inh: caspase 3/7 activation in MEF A1-2A-BIM cells, primary screen, A1 inhibitor project, cell-based, luminescence, HTS | caspase activation, % (no concentration beside the values) | Caspase-Glo 3/7 luminescence, 3 h; percent of clofoctol response, vehicle zero | hit rate 0.066% among 330,000;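 active = over half of replicate activation scores above 10%, or exactly half above 10 with the replicate mean above 10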;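 note: wells of about 30 µL received 50 nL stock; many hits fall short of the cut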
FGF22 binding: binders of human FGF22 protein, primary screen, FGF22 synaptogenesis inhibitor project, biophysical, thermal shift, single point; recombinant FGF22 thermal shift, SYPRO orange fluorescence; percent of sucrose octasulfate shift, DMSO zero; calls only at 9.99 µM; hit rate 1.5% among 340,000; AID 651658, 2012;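 active = melting point raised past a set limit in the mean and every replicate; three in four hits are not shown here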
Target sequence (Q9HCT0 whole entry, looked up): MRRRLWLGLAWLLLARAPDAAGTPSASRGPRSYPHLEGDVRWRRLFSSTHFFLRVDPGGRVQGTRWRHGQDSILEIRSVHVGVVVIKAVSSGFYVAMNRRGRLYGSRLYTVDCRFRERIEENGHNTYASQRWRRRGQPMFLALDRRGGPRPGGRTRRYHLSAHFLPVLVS
T cruzi inh: inhibitors of intracellular T. cruzi growth, primary screen, luminescence, NIH3T3 host cells; T. cruzi beta-gal in NIH3T3, 90 h; inhibition, % (test concentration not listed); AID 1885, 2009; hit rate 1.4% among 300,000;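 active = mean inhibition across valid replicates above about 55%, limit read from the data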;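 note: signal also drops with host cell toxicity which is not excluded here; 0% = plate median of DMSO wells and 100% = zero luminescence signal; higher percent means less beta-gal luminescence so fewer parasites; stock transfer was 50 nL into about 50 µL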
Beta apoptosis: inhibitors of cytokine-induced beta cell apoptosis, primary screen, luminescence; INS-1E cytokine-induced death, ATP luminescence, 48 h; percent of positive-control rescue, neutral wells zero; protection from apoptosis, % (no concentration beside the values); hit rate 0.8% among 300,000;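 active = all replicates at 75% or more, or half of them and the mean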;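 note: 0% = cytokine-treated negative control wells and 100% = positive control rescue; higher means more ATP so stronger rescue from cytokine killing; wells of about 40 µL received 100 nL stock; the first replicate is given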
Ecoli rRNA inh OD600: also measured in Ecoli rRNA inh; calls as there; OD600 change, %; measured here: OD600 growth;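 optical density of the mix in the first replicate; 0 = DMSO median and -100 = no signal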
Ecoli rRNA inh RFP: recorded beside Ecoli rRNA inh, whose call it bears; RFP signal change, %; measured here: RFP humanized mutant strains;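 first replicate; 0 = DMSO median and -100 = no signal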
The depositor's hits bear a star; i = inactive; . = no result given; & = joins results of further samples. A portion of the library. The share of hits here may be higher or lower than overall.

SMILES	MLL AF4-AF9 inh	E coli growth	Ecoli rRNA inh	Bfl-1 A1 inh	FGF22 binding	T cruzi inh	Beta apoptosis	others
CC(C)(C)OC(=O)NC(CO)c1cn(C(Cc2cc3ccccc3[nH]2)C(=O)N2CCN(C(=O)OC(C)(C)C)CC2)nn1 (centres undefined)	.	0.72	.	.	.	.	.
CC(C)(C)OC(=O)CC1CC=CCC(CC(=O)NCCO)C(=O)NC(Cc2ccccc2)COC1=O (centres undefined)	.	0.66&0.66&0.73&0.7	.	.	.	.	.
CCN1CC2C3C(=O)N(C)C(=O)C3[C@](CC)(C1=O)N2C(=O)c1ccc(F)cc1 (some centres undefined)	.	0.69	.	.	.	.	.
CC(C)(C)OC(=O)NC(Cc1ccccc1)C(O)c1ccco1 (centres undefined)	.	0.7	.	.	.	.	.
O=C(O)C(=C1OC(=O)c2ccccc21)c1ccccc1	.	0.68	.	.	.	.	.
COc1cc2c(cc1O)CCC1C2CC[C@]2(C)C(O)CCC12 (some centres undefined)	.	0.7	.	.	.	.	.
N#CC(=Cc1ccc(O)c([N+](=O)[O-])c1)c1nc2ccccc2s1	.	0.66	.	.	.	.	.
CCC(=O)Nc1cccc(C2=NOC3(C2)CC(C(N)=O)N(C(=O)COc2ccc(Cl)cc2)C3)c1 (centres undefined)	.	0.66	.	.	.	.	.
COC(=O)C(Cc1ccccc1)N(C)S(=O)(=O)c1cccc(S(=O)(=O)N(C)C(Cc2ccccc2)C(=O)OC)c1 (centres undefined)	.	0.72	.	.	.	.	.
C=CCN1c2ccccc2[C@]23CC(C(=O)OC)N(C(=O)C4CCC4)C2=NC(C(=O)OC)=C(C(=O)OC)C13 (some centres undefined)	.	0.71	.	.	.	.	.
CCN1C(=O)NC(c2cccc(F)c2)C(C(C)=O)=C1C (centres undefined)	.	0.69	.	.	.	.	.
CC(C)CC(CSc1ccc(Br)cc1)N1CCN(CCc2ccccc2)CCC1=O (centres undefined)	.	0.67	.	.	.	.	.
COC(=O)[C@@]1(Cc2ccc(F)cc2)C2c3cc(C(=O)N(C)C)n(CCc4ccccn4)c3CC2CN1C(=O)c1ccccc1 (some centres undefined)	.	0.67	.	.	.	.	.
COC(=O)C1=C(C)N(Cc2ccccc2)C(=O)NC1c1ccco1 (centres undefined)	.	0.7	.	.	.	.	.
CCC(C)C1COCCS(=O)(=O)N1Cc1ccccc1F (centres undefined)	.	0.67	.	.	.	.	.
CCC(=O)Nc1cccc(C2=NOC3(C2)CC(C(N)=O)N(C(=O)C2(C)CC2)C3)c1 (centres undefined)	.	0.67	.	.	.	.	.
CC1OC(OCCC(=O)O)C(O)CC1O (centres undefined)	.	0.65	.	.	.	.	.
O=C(O)CCCCCN1C(=O)C(O)=C(C(=O)C=Cc2ccccc2)C1c1ccccc1[N+](=O)[O-] (centres undefined)	.	0.73	.	.	.	.	.
C=CCNC(=O)COC(=O)C=Cc1cccs1	.	0.72	.	.	.	.	.
CN1CC2C3C(=O)N(Cc4ccccc4)C(=O)C3[C@](C)(C1=O)N2C(=O)c1ccc(C(F)(F)F)cc1 (some centres undefined)	.	0.67	.	.	.	.	.
O=C(NCc1nc2ccccc2[nH]1)C1=CC(c2ccc(C(F)(F)F)cc2)CC(OCCCCO)O1 (centres undefined)	.	0.67&0.65	.	.	.	.	.
COc1ccc(NC(=O)Nc2ccc3c(c2)C(=O)N(C(C)CO)CC(C)C(CN(C)C(=O)Nc2ccc4c(c2)OCO4)O3)cc1 (centres undefined)	.	0.66	.	.	.	.	.
OC(COc1c(Br)cc(Br)cc1Br)CN1CCOCC1 (centres undefined)	.	0.65	.	.	.	13	.
CCn1c(CNc2nc(-c3ccccc3)cs2)nnc1SCC(=O)NCc1ccco1	.	0.7	.	.	.	9	.
NCCN1CCN(CCN)CC1	.	0.72	.	.	.	-19	.
Carrying on:
SMILES	MLL AF4-AF9 inh	E coli growth	Ecoli rRNA inh	Bfl-1 A1 inh	FGF22 binding	T cruzi inh	Beta apoptosis	others
COc1ccccc1NS(=O)(=O)c1ccc(NC(=O)c2nc3ncccn3n2)cc1	.	0.72	.	.	.	-5	.
CC1=CC(=O)C=C(C)C1=NOS(=O)(=O)c1ccccc1	.	0.7	.	.	.	39	.
Cc1cc(N)n(-c2ccccc2)n1	.	0.69	.	-1.5	.	1	.
Cc1cccc(N2CCN(c3cc(C)nc4nnnn34)CC2C)c1 (centres undefined)	.	0.72	.	-0.5	.	4	.
CCOc1cc(S(=O)(=O)NCc2ccc3c(c2)OCO3)ccc1F	.	0.7	.	-0.3	.	-5	.
C#CCOCCOCCOCCNc1nc(N2CCN(C(=O)CCCCCCCCCCNC(=O)[C@H]([C@@H](C)CC)n3cc(CCCCN=C(N)N)nn3)CC2)nc(N2CCN(C(=O)CCCCCCCCCCNC(=O)[C@@H]([C@H](C)O)n3cc(C)nn3)CC2)n1	.	.	-40*	-0.1	.	.	15	Ecoli rRNA inh OD600=-23*;Ecoli rRNA inh RFP=4.6*
CC(C)C[C@@H](CO)N(Cc1ccccc1)S(=O)(=O)N(Cc1ccccc1)[C@H](CO)CC(C)C	.	.	-8	1.5	.	.	31	Ecoli rRNA inh OD600=-7;Ecoli rRNA inh RFP=-5.3
COc1ccc([C@@H]2CC(=O)[C@@H]3CN(S(=O)(=O)c4ccc(Cl)cc4)[C@H](c4ccc(C)cc4)C[C@@H]3N2S(=O)(=O)c2ccccc2)cc1	-0.6	.	.	.	i	.	.
CCOC(=O)[C@]12CCCC=C1N(Cc1cccc3ccccc13)C(=O)[C@H](CC(=O)N1CCCCC1)C2	3.4	.	.	.	i	.	.
CC(C)(C(=O)N1CCC1(C)C(=O)NC1Cc2ccccc2C1)c1ccccc1 (centres undefined)	1.7	.	.	.	i	.	.
CN(C)C(=O)c1cccc(-c2ccc([C@H]3[C@@H](CO)N4CCCCN(C(=O)C5CCCC5)C[C@H]34)cc2)c1	-3.0	.	.	.	i	.	.
O=C(/C=C/c1cccc(Cl)c1)OCC(=O)c1ccc[nH]1	0.0	.	.	.	i	.	.
O=C(C1CC1)N1CCCCN2[C@@H](CO)[C@H](c3ccc(C#CC4(O)CCCC4)cc3)[C@@H]2C1	-8.0	.	.	.	i	.	.
O=C1N(Cc2ccccc2)Cc2ccccc2[C@H]2OC(c3ccc(OCCCO)cc3)=N[C@@]12Cc1ccccc1	4.2	.	.	.	i	.	.
O=S(=O)(c1ccccc1)N1CCCCN2[C@H](CO)[C@@H](c3ccc(C#Cc4ccccc4)cc3)[C@@H]2C1	-6.1	.	.	.	i	.	.
CC1=C(C(=O)N2CCCCCC2)CC(CC(=O)NC2CCCC2)C(=O)N1Cc1ccc(C(C)(C)C)cc1 (centres undefined)	-1.3	.	.	.	i	.	.
O=C(NCc1ccc(F)cc1)[C@H]1C[C@H]2C(=O)N3CCC[C@H]3C(=O)N2[C@H]1c1ccc(O)cc1	-4.6	.	.	.	i	.	.
Cc1ccc(S(=O)(=O)N2C[C@H]3[C@H]4C(=O)N(Cc5ccccc5)C(=O)[C@H]4CC(=O)[C@H]3[C@@H]2c2ccccc2)cc1	-9.7	.	.	.	i	.	.
C[C@@H]1CN([C@@H](C)CO)C(=O)c2cc(-c3cccc(F)c3)cnc2O[C@@H]1CN(C)Cc1ccncc1	-1.4	.	.	.	i	.	.
O=C(NC1CCCC1)C1c2ccccc2OCC(=O)N1Cc1ccc2c(c1)OCO2 (centres undefined)	-0.8	.	.	.	i	.	.
CC(C)C#Cc1cnc2c(c1)C(=O)N([C@@H](C)CO)C[C@@H](C)[C@H](CN(C)Cc1ccccc1F)O2	5.2	.	.	.	i	.	.
O=C(C1CCCC1)N1CCCCN2[C@H](CO)[C@@H](c3ccc(C#CC4(O)CCCC4)cc3)[C@H]2C1	0.1	.	.	.	i	.	.
CC1(Br)C(Sc2ccccc2[N+](=O)[O-])=Nc2ccccc21 (centres undefined)	7.1	.	.	.	i	.	.
Cc1csc(=O)n1CC(=O)OCC(=O)Nc1ccc(F)c(F)c1F	-2.8	.	.	.	i	.	.
O=S(=O)(c1ccc(F)cc1)N1CCCCN2[C@H](C1)[C@@H](c1ccc(C#CC3CCCC3)cc1)[C@@H]2CO	-1.6	.	.	.	i	.	.

Arranged by formula weight (falling): some entries from above
SMILES	MLL AF4-AF9 inh	E coli growth	Ecoli rRNA inh	Bfl-1 A1 inh	FGF22 binding	T cruzi inh	Beta apoptosis	others
C#CCOCCOCCOCCNc1nc(N2CCN(C(=O)CCCCCCCCCCNC(=O)[C@H]([C@@H](C)CC)n3cc(CCCCN=C(N)N)nn3)CC2)nc(N2CCN(C(=O)CCCCCCCCCCNC(=O)[C@@H]([C@H](C)O)n3cc(C)nn3)CC2)n1	.	.	-40*	-0.1	.	.	15	Ecoli rRNA inh OD600=-23*;Ecoli rRNA inh RFP=4.6*
Cc1ccc(S(=O)(=O)N2C[C@H]3[C@H]4C(=O)N(Cc5ccccc5)C(=O)[C@H]4CC(=O)[C@H]3[C@@H]2c2ccccc2)cc1	-9.7	.	.	.	i	.	.
O=S(=O)(c1ccc(F)cc1)N1CCCCN2[C@H](C1)[C@@H](c1ccc(C#CC3CCCC3)cc1)[C@@H]2CO	-1.6	.	.	.	i	.	.
CC(C)C#Cc1cnc2c(c1)C(=O)N([C@@H](C)CO)C[C@@H](C)[C@H](CN(C)Cc1ccccc1F)O2	5.2	.	.	.	i	.	.
COc1ccccc1NS(=O)(=O)c1ccc(NC(=O)c2nc3ncccn3n2)cc1	.	0.72	.	.	.	-5	.

Other compounds follow.
SMILES	MLL AF4-AF9 inh	E coli growth	Ecoli rRNA inh	Bfl-1 A1 inh	FGF22 binding	T cruzi inh	Beta apoptosis	others
O=C(c1cccnc1)N1CCCCN2[C@@H](CO)[C@H](c3ccc(C#Cc4ccccc4)cc3)[C@@H]2C1	3.0	.	.	.	i	.	.
CN(Cc1ccccc1)C(=O)c1ccc2sc([C@@H]3O[C@H](CO)[C@H](O)[C@H](O)[C@H]3O)nc2c1	-1.4	.	.	.	i	.	.
CN1CCN(c2ncnc3c2ncn3[C@H]2CN(Cc3ccc(C(=O)O)cc3)C[C@@H](CO)O2)CC1	-0.2	.	.	.	i	.	.
CN1C(=O)N[C@@H]2c3ccccc3O[C@@]1(C)[C@@H]2COC(=O)c1ccccc1	0.8	.	.	.	i	.	.
O=C(CC[C@H]1O[C@@H](n2ccc(=O)[nH]c2=O)[C@H](O)[C@@H]1O)N[C@H](Cc1ccccc1)C(=O)NCC1CCCO1 (some centres undefined)	-2.9	.	.	.	i	.	.
O=S(=O)(N[C@@H]1CCCN(Cc2cccc(OCCO)c2)C1)c1ccc2ccccc2c1	7.2	.	.	.	i	.	.
COCCNC(=O)C[C@@H]1CC[C@@H]2[C@@H](COc3ccc(NC(=O)Nc4ccccc4)cc3C(=O)N2C)O1	-0.8	.	.	.	i	.	.
Cc1ccc(C)c(NC(=S)N2CCC(C(=O)c3ccc(F)cc3)CC2)c1	-20	.	.	.	i	.	.
COC(=O)CCCCCCC(=O)Nc1ccc(C2OC(CSc3nc4ccccc4s3)CC(c3ccccc3)O2)cc1 (centres undefined)	-4.1	.	.	.	i	.	.
CCc1ccc([C@@H]2CC(=O)[C@@H]3CN(S(=O)(=O)c4ccc(C)cc4)[C@H](c4ccc(Cl)cc4)C[C@@H]3N2S(=O)(=O)c2ccc(C)cc2)cc1	-2.9	.	.	.	i	.	.
O=C(COC(=O)c1cccc(S(=O)(=O)N2CCCC2)c1)Nc1cccc(Br)c1	-0.7	.	.	.	i	.	.
COC(=O)c1ccc(CNC(=O)c2cc(S(=O)(=O)NCc3ccccc3)ccc2C)cc1	1.3	.	.	.	i	.	.
CCOC(=O)C1CCCN(C(=O)c2ccc3c(c2)C(C)(C)CCC3(C)C)CC1 (centres undefined)	-0.1	.	.	.	i	.	.
